Mtb growth – M. tuberculosis H37Rv growth inhibitors, H37Rv strain (AID 1626) | M. tuberculosis H37Rv growth inhibition; higher % means a stronger effect | one-dose inhibition, % at 10 µM; IC50 in µM for titrated hits | actives 0.95% (n = 220,000);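 active = confirmed in a dose series; inconclusive = inhibition above 80% but not taken into the dose series; inactive = below 80% or under 30% at every dose of the series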;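 also: bacteria incubated seven days before Alamar blue readout; 0% = bacteria only wells and 100% = bacteria with antibiotic wells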
YopH inh – YopH tyrosine phosphatase inhibitors, primary screen, biochemical, fluorescence Ex485/Em525. YopH tyrosine phosphatase [Yersinia enterocolitica]. inhibition, %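 (about 10 µM by stock and volumes)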. actives 0.16% (n = 140,000);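 active = inhibition of 50% or more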;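 also: controls were vehicle for no effect and minimum signal wells for full effect; inactives centre near -20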
Arbovirus anti – antivirals against arbovirus infection, primary screen, cell-based, full library, 10K replicate subset | arbovirus infection cell-based antiviral screen | actives 0.37% (n = 200,000) | inhibition, % at 10 µM;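 active = inhibition from about 30%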;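 also: bluetongue infection of BSR cells; cell survival read as ATP light after 72 h; 0% = infected wells without compound and 100% = uninfected wells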
Mtb bLac sens – beta-lactam sensitization of Mtb H37Rv, H37Rv; inhibition, % at 25 µM; actives 0.27% (n = 330,000); M. tuberculosis H37Rv growth with meropenem, percent inhibition; hits of this screen are not shown here;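 active = about 74% or more and at least 40 points above the plate without the antibiotic, then above 30% in a dose series; inconclusive = first-round hits that could not be retested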;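 also: growth measured after seven days incubation then overnight dye step; 0% = bacteria only wells and 100% = bacteria with antibiotic; twin plates without the antibiotic show which effects depend on it; some results filed as inactive read as strong as hits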
RecA intein inh – Mtb RecA intein splicing inhibitors, primary screen, biochemical, fluorescence, HTS; Protein RecA (Mycobacterium tuberculosis (strain ATCC 25618 / H37Rv)), P9WHJ3; cell-free RecA intein splicing; inhibition, %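 (about 9 µM by stock and volumes)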; actives 0.75% (n = 290,000); in the data active = inhibition above about 30%; inconclusive = no clear call, values can overlap the other calls;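 also: 0% = vehicle wells and 100% = reference inhibitor control wells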
Target sequence (P9WHJ3 whole entry, looked up): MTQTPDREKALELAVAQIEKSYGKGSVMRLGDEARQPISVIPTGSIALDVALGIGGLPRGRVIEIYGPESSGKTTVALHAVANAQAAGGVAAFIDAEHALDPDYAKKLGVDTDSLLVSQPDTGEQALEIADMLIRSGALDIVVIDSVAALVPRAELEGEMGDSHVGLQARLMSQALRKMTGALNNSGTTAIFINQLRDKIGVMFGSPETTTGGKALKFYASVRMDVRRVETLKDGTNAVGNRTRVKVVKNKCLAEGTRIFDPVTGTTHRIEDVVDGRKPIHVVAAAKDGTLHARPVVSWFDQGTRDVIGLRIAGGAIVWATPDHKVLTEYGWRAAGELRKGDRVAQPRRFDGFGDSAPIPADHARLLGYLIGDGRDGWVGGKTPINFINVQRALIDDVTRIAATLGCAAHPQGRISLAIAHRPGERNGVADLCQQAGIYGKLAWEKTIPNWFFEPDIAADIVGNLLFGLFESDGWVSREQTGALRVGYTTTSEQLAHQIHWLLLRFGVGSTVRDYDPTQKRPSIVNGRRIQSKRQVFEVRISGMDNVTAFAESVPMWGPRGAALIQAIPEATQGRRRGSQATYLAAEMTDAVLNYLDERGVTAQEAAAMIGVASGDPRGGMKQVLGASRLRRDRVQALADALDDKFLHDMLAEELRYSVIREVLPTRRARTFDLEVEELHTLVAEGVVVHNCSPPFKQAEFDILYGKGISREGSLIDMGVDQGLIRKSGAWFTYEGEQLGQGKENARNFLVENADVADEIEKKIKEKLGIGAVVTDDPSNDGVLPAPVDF
Arbovirus anti repeat – second read-out of Arbovirus anti, no call of its own (marks repeat the call); inhibition, %; measured here: 10K subset replicate screen; many hits read low in the repeat;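 first of two repeat runs on a subset; 0% = infected and 100% = uninfected wells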
* hit, by the source's call; ? = inconclusive; · = not tested or not shown. These rows are one share of the data (hit frequency here may not be typical).

SMILES	Mtb growth	YopH inh	Arbovirus anti	Mtb bLac sens	RecA intein inh	others
CN1CCN2c3ncccc3Cc3ccccc3C2C1 (stereo not given)	8%	·	·	-3	-1.9
COc1ccccc1C(=O)NNC(=O)c1ccccc1	·	·	·	-3	2.8
CCC(=NCc1ccccc1)c1c(C(F)(F)F)[nH]n(-c2nc3ccccc3s2)c1=O	-1%	3	12	8	0.5
COc1cc(/C=C(\C#N)c2ccccn2)cc(OC)c1O	3%	·	·	-4	-7.2
CCc1ccc(OCc2nnc(SCCN3CCOCC3)n2C)cc1	-1%	-21	3	1	-1.7
Cc1nc(SCC(=O)Nc2ccc3c(c2)OCCO3)c2oc3ccccc3c2n1	-3%	-6	-3	34	8.3
COc1ccc(/C=C(/NC(=O)c2cccs2)C(=O)NCc2ccco2)cc1OC	-2%	·	4	4	1.1
O=C(O)c1cc(N/N=C/c2ccc3c(c2)OCCO3)ccc1Cl	-9%	-34	-1	5	·
CC(C)(C)OC(=O)N1CCC(c2cc(-c3cccs3)n[nH]2)CC1	11%	·	3	4	1.4
Cn1nc(C(=O)N2CCN(c3ccccc3F)CC2)c2c1-c1ccccc1S(=O)(=O)C2	·	·	·	-1	1.7
O=C(NC(=S)NC1CCCCC1)c1ccccc1[N+](=O)[O-]	·	·	·	-9	0.6
CCOc1cc(N2CCOCC2)c(OCC)cc1NC(=O)c1ccc2ccccc2n1	7%	·	-2	-5	0.2
CCOC(=O)c1oc2ccc(S(=O)(=O)n3nc(-c4ccccc4)cc3N)cc2c1C	9%	-45	-2	-2	0.7
N#CC1=C(N2CCCCC2)c2cc3c(n2C1=O)CCCC3	-3%	-11	-7	67	-4.9
CCCC(C)c1nnc(NC(=O)c2cc(C(=O)OC)cc([N+](=O)[O-])c2)s1 (stereo not given)	3%	-31	12	26	1.4

Grouped by structure, the entries above with an aryl thioether with sulfur outside any ring.
SMILES	Mtb growth	YopH inh	Arbovirus anti	Mtb bLac sens	RecA intein inh	others
CCc1ccc(OCc2nnc(SCCN3CCOCC3)n2C)cc1	-1%	-21	3	1	-1.7
Cc1nc(SCC(=O)Nc2ccc3c(c2)OCCO3)c2oc3ccccc3c2n1	-3%	-6	-3	34	8.3

Continued.
SMILES	Mtb growth	YopH inh	Arbovirus anti	Mtb bLac sens	RecA intein inh	others
CN1CCN(NC(=S)NC2CCCC2)CC1	3%	·	-3	-5	0.1
Cc1ccc(CCNC(=O)CN(c2ccc(C)cc2)S(=O)(=O)c2c(C)noc2C)cc1	·	·	·	10	0.1
COc1ccc(S(=O)(=O)N2CCC(C(=O)Oc3c(OC)cccc3OC)CC2)cc1OC	·	·	·	-4	0.3
O=C(COC(=O)c1c2c(nc3ccccc13)/C(=C\c1cccs1)CCC2)Nc1ccccc1	?	-25	-21	96	-0.7
O=C(c1ccc(C(F)(F)F)cc1)N1CCN(S(=O)(=O)c2ccc3c(c2)OCCCO3)CC1	·	·	·	-13	4.2
O=S(=O)(c1cccc(Cl)c1)N1CN(CC2CCCO2)c2nc3ccccc3nc21 (stereo not given)	·	·	·	0	4.7
C=CCC1c2cccc(C(=O)O)c2C(=O)N1c1ccc(Cl)cc1 (stereo not given)	-7%	-54	16	58	0.5
CC(C)c1nc(SCC(=O)Nc2ccc([N+](=O)[O-])cc2Br)n[nH]1	-7%	·	10	2	0.9
NC(=O)N/N=C/c1sc(=O)n(-c2ccccc2)c1Cl	·	·	·	-7	-3.1
O=C(COC(=O)CC1CC2CCC1C2)Nc1ccc(F)cc1 (stereo not given)	2%	·	2	-1	0.4
CC(C)OCCCNC(=O)C1CCN(S(=O)(=O)N2CCCCC2)CC1	15%	-42	-2	-1	-0.5
COc1ccc(CCN(C)C(=O)C2CCN(C(=O)Nc3ccccc3)CC2)cc1OC	·	·	·	3	0.7
CC(=O)c1ccc(NC(=O)C(C)Sc2nnnn2C)cc1 (stereo not given)	-3%	-18	-1	-3	-2.0
CC(C)c1ccc(OCC(=O)Nc2c3c(nn2C(C)(C)C)CS(=O)(=O)C3)cc1	·	·	·	-2	-5.7
O=[N+]([O-])c1ccc(OCC2CC(c3ccccc3)=NO2)cc1 (stereo not given)	12%	·	·	-9	-2.2

Of the compounds above, 2 have a COOH group:
SMILES	Mtb growth	YopH inh	Arbovirus anti	Mtb bLac sens	RecA intein inh	others
O=C(O)c1cc(N/N=C/c2ccc3c(c2)OCCO3)ccc1Cl	-9%	-34	-1	5	·
C=CCC1c2cccc(C(=O)O)c2C(=O)N1c1ccc(Cl)cc1 (stereo not given)	-7%	-54	16	58	0.5

The results go on.
SMILES	Mtb growth	YopH inh	Arbovirus anti	Mtb bLac sens	RecA intein inh	others
COc1ccc(-n2c(Cc3cccn3C)nnc2SCC(=O)Nc2ccccc2)cc1	2%	-3	12	7	4.8	Arbovirus anti repeat=9
COc1ccccc1CNS(=O)(=O)c1c(C(=O)N2CCCCCC2)c(C)n(C)c1C	·	·	·	4	-0.9
CCCC(=O)Nc1sc2c(c1C(=O)OC)C(C(=O)OC)CC2 (stereo not given)	-4%	-35	-2	-4	-0.5
Cc1c(C(=O)Nc2cc(F)cc(F)c2)cnn1-c1ccccc1	·	·	·	42	-2.0
O=C(O)C1CCCN1c1ncnc2ccccc12 (stereo not given)	-6%	-10	17	0	-4.5
CC(C)C[C@H](NC(=O)N1CCn2c1nc1ccccc12)C(=O)NCc1ccc2c(c1)OCO2	·	·	·	7	2.4
CC(C)NC(=O)c1cc2cc(Br)ccc2oc1=O	10%	-27	11	0	-2.8
Cc1cc[n+](C(C)C(=O)c2ccc(Cl)cc2)cc1 (stereo not given)	·	·	·	1	-0.7
Nc1ccc(N2CCN(c3ccc(F)cc3)CC2)cc1	0%	·	-20	59	-4.6
O=C(CSc1nnc(Cn2nnc(-c3ccccc3)n2)n1-c1ccccc1)Nc1ccc(F)cc1	-4%	-14	-9	9	0.5
CCC(=NCC1CCCO1)c1c(O)n(Cc2ccccc2)c(=O)[nH]c1=O (stereo not given)	5%	-43	-2	-9	-2.4
CCc1nnc(NC(=O)c2c(OC)cccc2OC)s1	-2%	-25	5	-15	-1.7
COc1ccc(C2=NN(Cc3ccccc3)C3C(=O)NC(=O)C23)cc1 (stereo not given)	-4%	·	-1	-13	2.1
CCOc1cc(N2CCOCC2)c(OCC)cc1NC(=O)COc1cccc2cccnc12	-1%	13	-27	36	1.2
CCOC(=O)c1cccc2c1-c1ccccc1/C2=N/O	3%	-42	13	1	9.3

Filtered by structure: the entries above containing a tert-butyl group
SMILES	Mtb growth	YopH inh	Arbovirus anti	Mtb bLac sens	RecA intein inh	others
CC(C)(C)OC(=O)N1CCC(c2cc(-c3cccs3)n[nH]2)CC1	11%	·	3	4	1.4
CC(C)c1ccc(OCC(=O)Nc2c3c(nn2C(C)(C)C)CS(=O)(=O)C3)cc1	·	·	·	-2	-5.7

(continued)
SMILES	Mtb growth	YopH inh	Arbovirus anti	Mtb bLac sens	RecA intein inh	others
COCCCNC(=O)Nc1ccc(Br)cc1Cl	0%	-13	10	0	0.9
Nc1ccc(C(=O)Nc2ccc(Nc3ccncc3)cc2)cc1	-14%	·	·	5	-1.3
CC(=O)NC(Cc1c[nH]c2ccccc12)C(=O)NCc1ccc2c(c1)OCO2 (stereo not given)	-6%	-9	-4	-7	1.2
O=C1CCCN1CC(O)CS(=O)(=O)Cc1ccc(Cl)c(Cl)c1 (stereo not given)	·	·	·	5	-0.5
Cc1ccccc1-n1c(Cn2c(=O)sc3ccccc32)nnc1SCC(N)=O	-5%	1	10	1	1.0	Arbovirus anti repeat=1
COc1ccc2o/c(=N/NC(=S)Nc3ccccc3)c(C(N)=O)cc2c1	11%	-32	-6	·	-0.1
Cc1ccc(C(=O)/C=C/Nc2ccccc2C(N)=O)cc1	-10%	-11	4	-1	-8.6
COc1cccc(/C=N/Nc2ccnc(=O)[nH]2)c1O	·	·	·	50	-2.4
Cc1ccc(S(=O)(=O)N(C)c2ccc(C(=O)Nc3c(C)n(C)n(-c4ccccc4)c3=O)cc2)cc1	-25%	·	0	1	0.4
CC1CCCCC1NCC#CCOc1ccc(Cl)cc1 (stereo not given)	-18%	·	-1	1	-1.4
O=C(Nc1ccc(F)cc1)/C(=C1/CCCCCN1)[N+](=O)[O-]	-15%	·	·	-12	1.3
Cc1nc(Nc2cccc(C(F)(F)F)c2)nc2c1C(=O)CC(C)C2 (stereo not given)	-4%	-31	-18	1	-10
Cc1nn(-c2ccc(F)cc2)c(C)c1NS(=O)(=O)c1ccc2ccccc2c1	-3%	-24	-16	-10	2.1
O=C(NCc1ccccc1)c1onc(CS(=O)(=O)c2ccc(Cl)cc2)c1C(=O)NCc1ccccc1	·	·	·	-6	0.9
CC(C)C(=O)Nc1cccc(-c2csc(-c3ccccc3)n2)c1	19%	-48	-12	30	2.6
CC1CCN(C(=O)CCNS(=O)(=O)c2ccc(Cl)cc2)CC1	·	·	·	-2	-0.4
Nc1nc(SCC(=O)NC2CCCC2)[nH]c(=O)c1NC(=O)c1cccs1	-4%	·	·	-3	3.0
COc1ccc(CN=CC2=C(O)CNC2=O)cc1	1%	-22	-3	-14	3.6
CCOC(=O)c1sc2ncn(CC(=O)NCC3CCCO3)c(=O)c2c1C (stereo not given)	1%	-15	2	-6	-6.2
O=C(Nc1ccc(Cl)c(C(F)(F)F)c1)[C@@H]1CC=C[C@@H]2CCN(Cc3ccc(Cl)c(Cl)c3)C(=O)[C@@H]21	0%	·	·	10	2.9
Cc1nc(-c2cccc(NS(=O)(=O)c3ccc4ccccc4c3)c2)cs1	-3%	16	-14	-3	14
O=C1C2CC=CCC2C(=O)N1c1ccc(Cc2ccncc2)cc1 (stereo not given)	3%	-21	6	-4	-0.9
COc1ccc(/C(O)=C2/C(=O)C(=O)N(c3nc(C)c(C)s3)C2c2ccco2)cc1 (stereo not given)	-12%	-22	13	56	-2.6
O=c1ccnc(S/C=C/c2ccccc2)[nH]1	-12%	-18	4	0	2.6
O=C(CNC(=O)c1cccc(Br)c1)N/N=C/c1cn[nH]c1-c1ccccc1	5%	-12	-8	2	-2.3
Cc1cc(/C=N/n2cnnc2)c(C)n1-c1ccc(Cl)cc1Cl	12%	-8	-13	3	2.5
CCN(CC)S(=O)(=O)c1cccc(C(=O)OCC(=O)c2ccc3c(c2)OCCO3)c1	0%	-35	9	-1	5.7
Cc1ccc(-c2csc(NC(=O)c3ccccc3F)c2C(=O)O)cc1	·	·	·	17	-1.8
O=C(COc1ccc(S(=O)(=O)NC2CCCCC2)cc1Cl)NCC1CCCO1 (stereo not given)	-1%	-31	7	-14	1.3
COc1ccc(OC)c(NC(=O)N2CCCC(C)C2)c1 (stereo not given)	·	·	·	5	3.6

3 compounds drawn at random from those above:
SMILES	Mtb growth	YopH inh	Arbovirus anti	Mtb bLac sens	RecA intein inh	others
CC1CCN(C(=O)CCNS(=O)(=O)c2ccc(Cl)cc2)CC1	·	·	·	-2	-0.4
CCOC(=O)c1sc2ncn(CC(=O)NCC3CCCO3)c(=O)c2c1C (stereo not given)	1%	-15	2	-6	-6.2
O=c1ccnc(S/C=C/c2ccccc2)[nH]1	-12%	-18	4	0	2.6
